GLA inh pH 4.5: alpha-galactosidase A (human) inhibition, pH 4.5. activity change, negative = inhibition, % at 105 µM. P06280. 230,000 tested, under 10 active. AID 1467. purified enzyme, 4-MU-alpha-Gal fluorescence, pH 4.5; inconclusive = small, poorly fitted or top-dose-only inhibition, or a rising curve; inactive = flat fitted curve, though single readings scatter; no compound was filed as active;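 also: 0% = full activity with enzyme and -100% = basal without enzyme; dose as in the result columns while the protocol names 77 µM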
Target sequence (P06280 whole entry, looked up): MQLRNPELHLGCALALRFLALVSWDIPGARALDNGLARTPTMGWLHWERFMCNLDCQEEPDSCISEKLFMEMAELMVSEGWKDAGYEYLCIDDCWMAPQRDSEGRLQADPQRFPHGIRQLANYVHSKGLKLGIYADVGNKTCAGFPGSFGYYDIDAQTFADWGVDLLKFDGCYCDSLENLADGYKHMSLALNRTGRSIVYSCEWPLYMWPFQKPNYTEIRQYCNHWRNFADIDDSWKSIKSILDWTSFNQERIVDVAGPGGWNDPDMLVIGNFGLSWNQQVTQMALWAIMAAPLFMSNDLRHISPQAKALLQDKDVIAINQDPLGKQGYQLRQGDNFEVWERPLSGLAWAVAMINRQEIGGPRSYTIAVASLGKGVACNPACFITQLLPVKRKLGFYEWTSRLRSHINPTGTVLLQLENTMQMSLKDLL
Rango dissoc inh: inhibitors of RanGTP-induced Rango-importin beta complex dissociation. O95149+P62826. Biochemical FRET Rango-importin beta, RanGTP-induced dissociation. Potency, µM (series often up to 46.1 µM), for the others: top-dose activity change, negative = inhibition. 0.071% of 340,000 active; active means falling FRET ratio curve, often poorly fitted, with flat reads before Ran was added; inconclusive means other falling curves, or compound fluorescence or quenching; inactive means flat or rising ratio curve;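 also: potency is read from the fitted curve at half-maximal effect; % of control where 0% means no effect; nearly all actives have a fitted effect of over 45% in size; -100% = wells without RanGTP and RCC1; the record marks most hits as doubtful in a second field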
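Rango/importin beta premix (0.1/0.25 uM final), PBS + 1 mM DTT + 0.02% Tween-20 + 0.1% BSA; cpd 5 min RT; FRET pre-read; + RanGTP-RCC1 (0.6 uM Ran, 2 mM GTP, 0.2 uM RCC1); 45 min RT; FRET post-read, ex 430, em 486/530 nm.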
Rango-impB inh: prevents formation of the Rango-importin beta complex; Q14974; Rango CFP/YFP FRET sensor + importin beta, 45 min; Potency, µM (series often up to 92.2 µM), for inactives: top-dose inhibition of complex formation; 0.031% of 340,000 active; AID 540263; active = rising FRET ratio curve, often small or poorly fitted; inconclusive = mostly compound fluorescence or quenching in the first reads; inactive = flat curves in all reads;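 also: potency is read from the fitted curve at half-maximal effect; 0% = DMSO wells and 100% = buffer wells lacking importin beta; nearly all actives have a fitted effect of over 15% in size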
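FRET biosensor (snurportin 1 IBB flanked by EYFP and cerulean), 50 nM, with compound 5 min, then 0.125 microM importin beta in PBS, 1 mM DTT, 0.02% Tween-20, 0.1% BSA. CFP/YFP ratio read after 45 min at room temperature; pre-read flags interference.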
miR-21 reporter: raises the signal of a miR-21 reporter; HeLa miR-21 FLuc reporter, luciferase, 48 h; Potency, µM (titrated, usually from 38.3 µM), for inactives: top-dose reporter change, positive = more light; 340,000 tested, under 10 active; active = well fitted rising curve with a large enough effect; inconclusive = small, poorly fitted or top-dose-only effect; inactive = no such curve, though single readings can be large or run the other way;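 also: % of control where 0% means no effect; miR-21 action dims this reporter so a rising signal means less miR-21 action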
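HeLa miR-21-FLuc reporter line, endogenous miR-21; 2000 cells/well in DMEM/10% FBS; compound titration up to ~40uM final, 48 h, 37 degree Celsius; luciferase detection reagent, 15 min lysis, CCD luminescence.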
* hit, by the source's call; ? = inconclusive; nt = no result given; & = joins results of further samples; [ ] = dose if it differs, or a comment.

The first 6 compounds, ahead of the listing:
SMILES	GLA inh pH 4.5	Rango dissoc inh	Rango-impB inh	miR-21 reporter
COCCn1c(N)c(N(Cc2ccccc2)C(=O)c2ccc(N3CCCC3=O)cc2)c(=O)[nH]c1=O	nt	2%	-0.4%	nt
CCn1c(SCC(=O)NCc2ccco2)nc2cccnc21	3	3%	2.0%	-1%
COc1cc(C(=O)NCc2nc(C)cs2)ccc1OC1CCN(C(C)=O)CC1	nt	2%	?	-3%
Cc1nn(C)cc1/C=N/NC(=S)Nc1ccc(Cl)cc1Cl	-1	23%	5.1%	-30%
Cc1ccc2c(C(=O)CN3CCSCC3)c(C)[nH]c2c1	-3	26%	-0.1%	-5%
Cc1onc(-c2ccccc2Cl)c1C(=O)N1CCCCC1C(=O)O (configuration not stated)	0	-7%	-2.8%	-1%

The whole of this part, previewed entries included:
SMILES	GLA inh pH 4.5	Rango dissoc inh	Rango-impB inh	miR-21 reporter
COCCn1c(N)c(N(Cc2ccccc2)C(=O)c2ccc(N3CCCC3=O)cc2)c(=O)[nH]c1=O	nt	2%	-0.4%	nt
CCn1c(SCC(=O)NCc2ccco2)nc2cccnc21	3	3%	2.0%	-1%
COc1cc(C(=O)NCc2nc(C)cs2)ccc1OC1CCN(C(C)=O)CC1	nt	2%	?	-3%
Cc1nn(C)cc1/C=N/NC(=S)Nc1ccc(Cl)cc1Cl	-1	23%	5.1%	-30%
Cc1ccc2c(C(=O)CN3CCSCC3)c(C)[nH]c2c1	-3	26%	-0.1%	-5%
Cc1onc(-c2ccccc2Cl)c1C(=O)N1CCCCC1C(=O)O (configuration not stated)	0	-7%	-2.8%	-1%
O=[N+]([O-])c1ccccc1/C=C/C=N/Nc1ccc(S(=O)(=O)Nc2ccc(Cl)cc2)cc1[N+](=O)[O-]	-21	?	1.6%	-2%
O=C(Nc1cc(S(=O)(=O)N2CCOCC2)ccc1N1CCCC1)c1ccc2c(c1)S(=O)(=O)c1ccccc1C2=O	-2	1%	-0.3%	-15%
Nc1ccccc1C(=O)Nc1nccs1	16	-17%	?	-39%
COc1ccccc1-n1ccnc(SCC(=O)NCc2ccccc2Cl)c1=O	nt	5%	7.0%	nt
O=C(NCc1cccc(C(F)(F)F)c1)c1cccc(Cl)c1Cl	-4	-6%	-0.5%	-14%
Clc1c(OCCCn2ccnc2)ccc2ccccc12	nt	1%	1.9%	-22%
CC(C)CCNC(=O)CO/N=C/c1ccccc1OC(F)F	-2	-13%	4.8%	-5%
CCN1CCN(C(=O)c2cc3sccc3n2CC(=O)c2ccccc2)CC1	6	8%	1.2%	-12%
CCOC(=O)N(O)c1ccc(C=Cc2ccccc2)cc1	nt	-2%	-0.4%	nt
CCCc1nn2c(=O)cc(CSCC(=O)Nc3ccc(OC)cc3)nc2s1	nt	4%	-1.5%	1%
CCN(CC)c1ccc([N+](=O)[O-])cc1/C=N/NC(=O)CC#N	-15	25%	-1.0%	0%
COCc1c(C(=O)N2CCN(S(=O)(=O)c3ccccc3Cl)CC2)oc2ccccc12	nt	12%	-4.5%	nt
CCN(CC)C(=O)CSc1nnc(SC(C)C(=O)NC2CC2)s1 (configuration not stated)	nt	5%	3.7%	nt
Cc1ccc(-c2ccc(=O)n(CC(=O)NCCCN3CCCCC3)n2)cc1	3	4%	1.7%	-11%

Quoted at random: 4 records from the list, in no set order.
SMILES	GLA inh pH 4.5	Rango dissoc inh	Rango-impB inh	miR-21 reporter
O=C(Nc1cc(S(=O)(=O)N2CCOCC2)ccc1N1CCCC1)c1ccc2c(c1)S(=O)(=O)c1ccccc1C2=O	-2	1%	-0.3%	-15%
Clc1c(OCCCn2ccnc2)ccc2ccccc12	nt	1%	1.9%	-22%
CCN(CC)C(=O)CSc1nnc(SC(C)C(=O)NC2CC2)s1 (configuration not stated)	nt	5%	3.7%	nt
CCN1CCN(C(=O)c2cc3sccc3n2CC(=O)c2ccccc2)CC1	6	8%	1.2%	-12%

The list continues.
SMILES	GLA inh pH 4.5	Rango dissoc inh	Rango-impB inh	miR-21 reporter
O=[N+]([O-])c1ccc(-c2cnc(SC(c3ccccc3)c3ccccc3)[nH]2)cc1	-2	?	?	?
COC(=O)C/C=C/[C@@H](C)[C@@H](/C=N/O[C@@H](C)c1cn([C@H](CO)Cc2ccccc2)nn1)NS(=O)(=O)c1ccc(C)cc1	1	nt	nt	-5%
COc1ccc(CCNC(=O)CN(C)S(=O)(=O)c2cccs2)cc1	nt	-6%	-4.2%	nt
CCCCCCCNC(=O)C1(CC2CC(c3cccc(Br)c3)=NO2)CCNCC1 (configuration not stated)	nt	-1%	-0.3%	25%
COc1ccc(NC(=O)CS(=O)(=O)c2ccccc2Cl)cc1	nt	10%	-0.5%	-18%
O=C(Nn1c(SCc2ccc(F)cc2)nc2ccsc2c1=O)c1ccccc1	4	0%	?	-22%
COc1ccc(NC(=O)C2C3C=CC(O3)C2C(=O)O)cc1 (configuration not stated)	nt	-1%	4.8%	-3%
COCCCNC(=O)C[C@H]1C[C@H](C(=O)N2CCOCC2)[C@@]2(CCC3CCCC3)c3[nH]c4ccc(Cl)cc4c3CCN2C1=O	nt	-6%	-2.4%	nt
Cc1ccc(C(=O)N/N=C/C=C/c2ccccc2)o1	2	1%	1.8%	-26%
COCCNC(=O)C(c1ccncc1)N(C(=O)c1sc(C)nc1C)c1cccc(C)c1 (configuration not stated)	8	0%	-3.3%	-38%
Cc1ccc(CNC(=O)C(=O)NCC2OCCN2C(=O)c2ccc3c(c2)OCO3)cc1 (configuration not stated)	-5	-16%	-1.2%	5%
CCOc1cc(C(=S)N2CCOCC2)ccc1OS(=O)(=O)c1ccc(C)cc1	nt	23%	-0.6%	0%
COC(=O)c1ccccc1NC(=O)CN(C)S(=O)(=O)c1ccc(OC)cc1	-3	3%	0.9%	-2%
O=C(NCc1nc2ccccc2[nH]1)C1=C[C@H](C2CCCCC2)C[C@H](OCCCCO)O1	nt	12%	-1.1%	nt
COc1ccc(C(=O)N=c2sccn2C)cc1	4	-10%	-0.2%	-34%
CCOC(=O)c1sc(NC(=O)c2ccc(S(=O)(=O)N3CCOCC3)cc2)nc1-c1ccccc1	-9	3%	-0.9%	5%
CCCn1c2ccc(F)cc2c2nnc(SCCN3CCCCC3)nc21	nt	9%	-2.9%	-7%&-12%
CCCCN(C(=O)NC(=O)Nc1cccc(C)c1C)S(C)(=O)=O	-2	-11%	3.4%	0%
COCCNC(=O)/C=C/c1c(Cl)cccc1Cl	9	?	-2.9%	-19%
CCCC(=O)Nc1cccc2c1CCCC2	0	-21%	?	-4%
CC(=O)Oc1ccccc1N(C(C)=O)S(=O)(=O)c1ccc2ccccc2c1	-7	-5%	6.5%	-24%
CC(C)(C)c1ccc(NC(=O)c2ccsc2)cc1	6	-2%	-1.3%	-20%
COc1ccc(CNC(=O)CSc2nnc3nc(C)cc(C)n23)cc1OC	9	-4%	-1.0%	-1%
Cn1c(=O)n(Cc2ccccc2F)c(=O)c2c1nc1n2CCN1Cc1ccco1	4	-6%	0.8%	1%
O=c1c(Cc2ccc(F)cc2)c(O)ccn1CCc1cnc[nH]1	2	7%	-1.3%	1%
c1ccc2cc(CCO[C@H]3CCCCO3)ncc2c1	nt	18%	1.7%	nt
O=C(NCCC1CCCCN1S(=O)(=O)c1ccccc1)C(=O)NCc1ccccc1 (configuration not stated)	nt	-2%	0.5%	nt
CC1CCCCC1NC(=O)CCc1nc2sc3c(c2c(=O)[nH]1)CCCC3 (configuration not stated)	nt	-10%	-0.4%	nt
CC1(C)CC(NC(=S)Nc2ccc(S(N)(=O)=O)cc2)CC(C)(C)N1	0	-6%	2.3%	-1%
CCOC(=O)Cc1csc(SC(C)C(=O)NC2CCCCC2C)n1 (configuration not stated)	nt	-4%	?	nt
COc1ccc(Cc2nc3ccc(S(=O)(=O)N4CCOCC4)cc3[nH]2)cc1OC	10	-10%	-1.5%	7%
O=C(NN1c2ccccc2CCc2ccccc21)c1ccccc1Br	6	27%	-0.9%	-6%
O=C(CN1C(=O)c2cccc3cccc1c23)N1CCN(Cc2ccc3c(c2)OCO3)CC1	-4	?	?	19%
CCOC(OCC)c1nc(N)[nH]c(=O)c1CCCCc1ccccc1	nt	-2%	-1.2%	nt
CCOC(=O)N1CCC(N2C(=O)c3ccccc3C2Nc2ccc3c(c2)OCCO3)CC1 (configuration not stated)	-6	22%	-1.3%	-27%
CCOC(=O)Nc1ccc(S(=O)(=O)Nc2cc(C)nc(C)n2)cc1	7	4%	-1.2%	-1%
Cc1onc(-c2ccc(Cl)cc2Cl)c1C(=O)/C=C/N(C)C	-1	-23%	?	3%
O=C(CSc1nccc(-c2ccc(Br)cc2)n1)NCCc1ccccc1	5	-3%	2.5%	-9%
NC(=O)c1cnn(-c2cc(Oc3ccccc3)ncn2)c1N	5	-10%	1.9%	-62%
CCN(CC)S(=O)(=O)c1ccc(O)c(NC(=O)c2cc(-c3cc(OC)c(OC)c(OC)c3)nc3ccccc23)c1	nt	2%	-3.5%	24%
O=C(CSc1nnc(-c2ccccc2)o1)N1CCN(c2ccccc2)CC1	-5	34%	-3.6%	0%
O=C(Nc1ccc(Cc2ccncc2)cc1)c1cc(F)c(F)cc1Cl	2	5%	3.6%	-2%
O=C(Nc1ccc(Br)cc1)N1CCCCC1	2	-3%	0.2%	-50%
Cc1ccc(S(=O)(=O)NCCSCc2ccccc2)cc1	1	-5%	-1.0%	-4%
CCOC(=O)N1C2C=C(C)[C@@H]2[C@@H]2CC(=O)N21 (some centres not stated)	-4	2%	0.5%	-4%
CCOC(=O)CN1C(=O)NC2NC(=O)NC21 (configuration not stated)	3	16%	0.1%	4%
COC(=O)C[C@H]1c2cc(C(F)(F)F)ccc2S(=O)(=O)N1C(C)(C)C	nt	4%	-0.3%	nt
O=c1cc(C(F)(F)F)nc(SCc2cccnc2)[nH]1	nt	-18%	2.2%	5%
O=C(COC(=O)c1cccc(S(=O)(=O)Nc2ccc(F)cc2)c1)NCCN1C(=O)CSC1=O	nt	5%	1.5%	nt
Cc1ccccc1NC(=S)N1CCCC(c2nc3ccccc3[nH]2)C1 (configuration not stated)	-2	1%	2.5%	9%
Following part:
SMILES	GLA inh pH 4.5	Rango dissoc inh	Rango-impB inh	miR-21 reporter
COC(=O)c1ccc(C(=O)N(C)C2CCCN(Cc3ccccc3F)C2)cc1 (configuration not stated)	nt	2%	-2.0%	1%
O=C(O)/C=C/C(=O)NNc1ccc([N+](=O)[O-])cc1	-12	-15%	0.5%	-26%
CC(=O)Nc1cccc(OC(=O)COc2ccc(Br)cc2)c1	4	12%	3.4%	-15%
COCCn1c(N)c(N(Cc2ccccc2)C(=O)COc2ccccc2F)c(=O)[nH]c1=O	nt	2%	-1.3%	nt
CC1CCN(C(=O)COc2coc(CN3CCc4ccccc43)cc2=O)CC1	nt	17%	-3.4%	nt
COc1ccc(N2CCN(C(=O)CNC(=O)Cc3ccccc3)CC2)cc1	nt	2%	2.9%	4%
Cc1onc(C(=O)N2CCOCC2)c1[N+](=O)[O-]	3[21.1 µM]	2%	-1.0%	4%
CN(C)c1ccc(C(=O)NCCCSc2ccccc2)cc1	nt	-16%	0.6%	-12%
c1nc(N2CCCC2)c2[nH]cnc2n1	0	-14%	-1.3%	-6%
O=C(Cn1cnc2c(nnn2Cc2ccc(F)cc2)c1=O)NCc1ccccc1	-9	0%	-2.5%	?
COc1ccc(-n2c(=O)c(NC(=O)c3ccccc3)c3n(c2=S)CCCCC3)cc1	5	1%	-1.0%	-2%
CCCC(CCC(=O)Nc1cccc([N+](=O)[O-])c1)C(=O)O (configuration not stated)	2	-6%	-0.1%	-1%
CSCC[C@H](NS(=O)(=O)c1ccc(C(C)=O)cc1)c1nnc2ccccn12	nt	7%	-1.6%	0%
NS(=O)(=O)c1ccc(NC(=O)CSc2ncnc3ccccc23)cc1	10	13%	-1.2%	-10%
O=c1c(-c2ccc(Cl)cc2)coc2c(CN3CCOCC3)c(O)ccc12	0	28%	-2.7%	-13%
COc1cc2ccccc2cc1C(=O)OCC(=O)NC1CCS(=O)(=O)C1 (configuration not stated)	15	2%	6.1%	-1%

From PubChem BioAssay

Only part of the results is shown; rates above refer to the full screens.
